# H5N1 CPE: MDCK cell protection from H5N1 avian flu; cytopathic effect, luminescence, 72 h; hits give high values; no value below 0 was filed and about half of the inactive calls have no number; reference of the scale not given here; inhibition, % at 50 µM; hit rate 0.07% among 96,000; in the data active = inhibition above about 25%
# An asterisk follows results filed as active; i = inactive. These rows are one share of the data. The share of hits here may be higher or lower than overall.
SMILES,H5N1 CPE
O=C(C1CCN(S(=O)(=O)c2cccnc2)CC1)N1CCN(c2ccccc2Cl)CC1,3.6
O=[N+]([O-])c1cccc(C(=Nc2ccccc2Cl)NO)c1,i
CCOC(=O)Cn1nc(/C=C/c2ccc(C)cc2)ccc1=O,i
CCOc1cc(C=O)ccc1OCCCN1C(=O)NC(C)(C)C1=O,i
COc1ccc(N=c2sc3ccccc3n2C)cc1,i
COC(=O)C(C#N)C(c1cccnc1)c1c(C)[nH][nH]c1=O (stereo unspecified),i
c1ccc(N2CCN(c3nc4cc5c(cc4s3)OCO5)CC2)cc1,1.0
O=C(NCC(=O)N(c1ccc2c(c1)OCO2)C(C(=O)NC1CCCC1)c1cccs1)c1ccco1 (stereo unspecified),i
Cc1ccccc1OCCCCn1cnc2ccccc21,i
O=S(=O)(c1cc(C(F)(F)F)ccc1Cl)N1CCCCCC1,1.8
CC(C)c1c(O)nc(SCC(=O)Nc2ccc3c(c2)CCC3)[nH]c1=O,i
CCc1c(C)c2ccc(OCC(=O)OC(C)C)c(C)c2oc1=O,i
O=C1C(=O)N(Cc2cccnc2)C(c2ccccn2)/C1=C(/O)c1ccccc1 (stereo unspecified),0.4
CCCCC(=O)Nc1ccc(NC(=O)C2CC2)cn1,0.0
O=P(/C(=N/O)N1CCOCC1)(N1CCOCC1)N1CCOCC1,1.4
COc1cc(/C=C2/C(=N)N3C=CSC3=NC2=O)ccc1OCCCOc1c(C)cccc1C,i
CC12CCC(C(=O)NCc3ccco3)(OC1=O)C2(C)C (stereo unspecified),2.4
Oc1c(Cl)cc(Cl)cc1C=Nc1ccc2c(c1)OCCO2,i
COc1ccc(-c2cc(C(F)(F)F)n3nc(C(=O)NCc4ccco4)cc3n2)cc1OC,0.0
CN(C)S(=O)(=O)Nc1ccc(NS(=O)(=O)N(C)C)c(S(=O)(=O)c2ccccc2)c1,0.7
CCCn1cnc2cc(NCc3cccc(OC)c3O)ccc21,i
CCc1nc2nc(C)cc(Nc3cccc(C(F)(F)F)c3)n2n1,i
CCOC(=O)C1=C(C)OC(N)=C(C(=O)OCC)C1c1ccncc1 (stereo unspecified),i
COc1cccc(CN2CCN(C(=O)c3cccs3)CC2)c1OC,0.4
O=C(CN1CCCCC1)N1CCN(C(=O)CN2CCCCC2)CC1,1.0
COC(=O)/C=c1\sc2n(c1=O)C(C)=CC(C)(C)N=2,i
O=C(NCCc1ccccc1)C1c2ccccc2C(=O)N1C1CC1 (stereo unspecified),i
O=C(O)CC(=O)Nc1ccccc1,0.4
COC(=O)C1=NN(c2ccc(C)cc2)C2(S1)SC(C(C)=O)=C(C)N2c1ccccc1 (stereo unspecified),i
CS(=O)(=O)NCc1ccc(C(=O)NCCOc2ccccc2)cc1,0.1
O=C(Nc1ccc(N2CCCCC2)c(Cl)c1)c1ccc2c(c1)OCCO2,i
CCOc1cc(/C=C2/NC(=O)N(CC(=O)Nc3cccc(C)c3)C2=O)ccc1OC,i
CCOc1ccc(/C=C2\C(=O)c3ccccc3OC2c2ccccc2)cc1 (stereo unspecified),0.1
C=CCOc1c(Cl)cc(CNCCC)cc1Cl,i
CCCCCn1c(N2CCN(c3cccc(Cl)c3)CC2)nc2c1c(=O)[nH]c(=O)n2C,i
COc1ccc2nc(NCCCNC(=O)c3cc(OC)c(OC)c(OC)c3)c(C#N)cc2c1,0.3

# Part of the list above, set out differently:
Molecule	H5N1 CPE
COC(=O)/C=c1\sc2n(c1=O)C(C)=CC(C)(C)N=2	i
O=C(NCCc1ccccc1)C1c2ccccc2C(=O)N1C1CC1 (stereo unspecified)	i
O=C(O)CC(=O)Nc1ccccc1	0.4
COC(=O)C1=NN(c2ccc(C)cc2)C2(S1)SC(C(C)=O)=C(C)N2c1ccccc1 (stereo unspecified)	i
CS(=O)(=O)NCc1ccc(C(=O)NCCOc2ccccc2)cc1	0.1
O=C(Nc1ccc(N2CCCCC2)c(Cl)c1)c1ccc2c(c1)OCCO2	i
CCOc1cc(/C=C2/NC(=O)N(CC(=O)Nc3cccc(C)c3)C2=O)ccc1OC	i

# The list goes on.
SMILES,H5N1 CPE
CCOC(=O)c1cccc(NC(=O)Nc2cc(OC)ccc2OC)c1,0.3
CCCc1cc(C(=O)Nc2nccs2)cs1,0.3
Cc1ccc(S(=O)(=O)C2(S(=O)(=O)c3ccc(C)cc3)CCCC2)cc1,i
CCOC(=O)CSc1nc2sc3c(c2c(=O)[nH]1)CCCC3,0.3
C/C(CC1CC2=C(CC1(C)C)C(C)(C)CCC2)=N\NC(N)=S (stereo unspecified),i
Cc1cc(NC(=O)COC(=O)CCC(=O)c2ccc(F)cc2)no1,i
CCOC(=O)c1cc(-c2ccncc2)nc2c1c(C)nn2-c1ccccn1,3.7
COc1ccc(NC(=O)CSc2nc(N3CCCCC3)nc(N3CCCCC3)n2)cc1,i
CCOC(=O)CN1C=C(c2ccc3ccccc3n2)C(C[N+](=O)[O-])c2ccccc21 (stereo unspecified),5.9
O=C(NCCC1=CCCCC1)C1CCN(c2nc3ccccc3o2)CC1,i
COc1ccccc1NC(=O)Cn1ncc2c1-c1ccccc1OC2,2.7
Cn1ccc(C(=O)OCC(=O)c2ccccc2)n1,0.5
Cc1ccc(-c2nc3ccccc3[nH]2)cc1NC(=O)c1ccco1,1.1
Cc1c(NC(=O)Nc2cccc(Cl)c2)c(=O)n(-c2ccccc2)n1C,i
CCc1nnc(NC(=O)CCC(=O)N2CCN(C3CCCCC3)CC2)s1,i
COc1ccc(S(=O)(=O)N2CCOCC2)cc1Cl,1.5
CCN1CCN(C(=O)CCCCCn2c(=O)[nH]c3cc(C(=O)OC)ccc3c2=O)CC1,3.6
COc1cc(NC(=O)NCCN2CCN(c3ccc(Cl)cc3)CC2)ccc1C,i
COc1cc(-c2cc(N)n(S(=O)(=O)c3ccc(F)cc3)n2)cc(OC)c1OC,i
COc1ccc(P2(=O)Nc3ccccc3N2)cc1,i
COc1cccc(-c2nnc3sc(-c4ccccn4)nn23)c1,3.6
CCCc1cc(C(N)=O)c(NC(=O)c2ccoc2C)s1,i
Cn1c(SCCCC(=O)c2ccccc2)nnc1-c1ccncc1,1.3
CC(=O)Nc1ccc(N/C=C/C(=O)C(C)(C)C)cc1,i
Cc1nc(NCc2ccc3c(c2)OCO3)c2oc3ccccc3c2n1,i
O=C(CSc1nc2cc(Cl)ccc2s1)c1cc2ccccc2o1,i
Cc1ccc(NC(=O)CCNS(=O)(=O)c2ccc3c(c2)oc(=O)n3C)cc1,0.3
Cc1ccc(NC(=O)c2onc(C)c2Cl)cc1,0.6
Cc1cc(C)nc(NC(=O)CSc2nn(C)c(=S)s2)n1,i
CCOC(=O)N1CCC(NC(=O)c2cc(C(=O)Nc3cccc(OC)c3)ccc2CO)CC1,0.0
C1=C(N2CCOCC2)/C(=C/c2nc3ccccc3[nH]2)CC1,0.1
Brc1ccccc1-c1nnc(CSc2nnnn2-c2ccccc2)o1,0.1
CCNC(=O)CCc1nc(-c2ccc(C(C)(C)C)cc2)no1,0.9
CCCCCCNC(=O)CSc1nccn1Cc1ccccc1,0.3
CCOC(=O)c1sc(NC(=O)c2ccc(C)o2)nc1C,i
O=C(c1nc2ncccn2n1)N1CCc2ccccc2C1,0.4
CSc1nc(SCC(=O)NCc2ccco2)c2c3c(sc2n1)CN(C)CC3,4.8
CCCN(CCC)C(=O)CCS(=O)(=O)c1cccc2nsnc12,i
COc1ccccc1CNS(=O)(=O)c1c(C)[nH]c(=O)[nH]c1=O,0.2
NC(=O)NC(=O)CSc1nc(-c2ccccc2)c(-c2ccccc2)n1CC1CCCO1 (stereo unspecified),1.1
CC(=O)NC1C(c2nc3ccccc3s2)=C(c2ccccc2)C(=O)N1c1ccc(C)cc1 (stereo unspecified),i
Cc1ccc(S(=O)(=O)NCCCCCC(=O)N(C)C)cc1,1.4
CCCCn1nnnc1SCC(=O)N1CCCC1,2.1
COc1cc(C(=O)NC2CC3CCCC(C2)N3CC(=O)Nc2ccccc2)cc(OC)c1OC (stereo unspecified),i
O=C(NCCc1c[nH]c2ccccc12)c1cc(S(=O)(=O)N2CCCCC2)ccc1N1CCOCC1,2.2
O=C(O)c1ccc(CSCc2ccccc2F)o1,i
Cc1cc(NC(=O)COC(=O)CCCOc2ccc(Cl)cc2C)no1,i
Cn1c(SCC(=O)NCc2ccco2)nc2ccccc2c1=O,8.3

# Some of these compounds in order of formula weight, lowest first.
SMILES,H5N1 CPE
O=C(O)c1ccc(CSCc2ccccc2F)o1,i
CCCCn1nnnc1SCC(=O)N1CCCC1,2.1
Cc1ccc(S(=O)(=O)NCCCCCC(=O)N(C)C)cc1,1.4
COc1ccccc1CNS(=O)(=O)c1c(C)[nH]c(=O)[nH]c1=O,0.2
CCCN(CCC)C(=O)CCS(=O)(=O)c1cccc2nsnc12,i
Cc1cc(NC(=O)COC(=O)CCCOc2ccc(Cl)cc2C)no1,i

# The listing continues:
SMILES,H5N1 CPE
COC(=O)c1cc(OC)c(OC)cc1NC(=S)N1CCCCC1,0.7
CCC1CCCCN1C(=O)COc1cc(=O)n(C)c2ccccc12 (stereo unspecified),3.2
COC(=O)CSc1nnc(SCc2ccc(Cl)cc2)s1,i
Cc1cccc(CCNC(=O)C2CCC(=O)N2Cc2ccc(F)cc2)c1 (stereo unspecified),i
O=C(O)c1cnn2c1NC(c1ccc(F)cc1)CC2C(F)(F)F (stereo unspecified),i
O=S(=O)(Nc1cccc(-c2cn3cccnc3n2)c1)c1ccc(-c2ccccc2)cc1,0.8
CCN1CCN(C(=O)CCc2nc3ccccc3c(=O)[nH]2)CC1,0.2
C/C(=C\c1ccccc1)CN(C)CCN(C)C,i
Cc1[nH]c2ccccc2c1C(=O)CN1CCC2(CC1)OCCO2,0.1
CCn1c(COc2ccc(C)cc2)nnc1SCC(=O)Nc1cc(OC)ccc1OC,0.7
O=C(/C=C\Nc1ccccn1)c1ccccc1,i
Cn1nccc1C(=O)Nn1cnnc1,0.4
COc1ccc(C(=O)Nn2cnnc2)c(OC)c1,0.7
COc1ccc(C2=NOC(C(=O)NC(C)(C)C)C2)cc1 (stereo unspecified),0.0
Cc1cc(NC(=O)CSc2ccc3nnc(-c4ccccc4)n3n2)no1,i
CCOC(=O)C(=O)/C(=C\N(C)C)c1onc(-c2ccccc2)c1C(=O)OC,0.1
CSc1nc2c(c(=O)n1C)SC(C)C2 (stereo unspecified),1.3
CC(C)(C)NC(=O)COc1ccc(CNn2nnnc2N)cc1,i
CC(C(=O)Nc1nccs1)N1C(=O)C2CC=CCC2C1=O (stereo unspecified),0.5
CCCCc1c(O)nc2sc3cc(OC)ccc3n2c1=O,i
Cc1ccc(-c2csc(-c3c[nH]c4ccccc34)n2)c(C)c1,i
CCN(Cc1ccccc1)C(=O)C1CCC(CNc2c(N3CCOCC3)c(=O)c2=O)CC1 (stereo unspecified),0.6
CCN(c1c(C)n(C)n(-c2ccccc2)c1=O)S(C)(=O)=O,0.1
COc1ccc(O)c(-c2cc(-c3cccc(Br)c3)n[nH]2)c1,6.0

# 2 entries from above in a different format.
COc1ccc(C2=NOC(C(=O)NC(C)(C)C)C2)cc1 (stereo unspecified)
  H5N1 CPE = 0.0

Cc1ccc(-c2csc(-c3c[nH]c4ccccc34)n2)c(C)c1
  H5N1 CPE = i

# Later entries:
SMILES,H5N1 CPE
CCOc1cccc(C(=O)Nc2ccc(N(CC)CC)cc2)c1,i
COc1ccc(-c2nnc(SC(C)C(=O)Nc3c(C)n(C)n(-c4ccccc4)c3=O)o2)cc1 (stereo unspecified),0.4
CCOC(=O)c1cccc(NC(=O)C2CCN(S(=O)(=O)c3cccs3)CC2)c1,3.9
CCC(=O)c1ccccc1OCCN1C(=O)NC(C)(C)C1=O,0.1
CCOc1cccc(C(=O)Nc2ccccc2OC(F)F)c1,i
C=CCOCC(O)CS(=O)(=O)Cc1ccc(Cl)cc1 (stereo unspecified),i
CC(NC(=O)CC12CC3CC(CC(C3)C1)C2)C(=O)O (stereo unspecified),0.7
CCOC(=O)N1CCN(Cc2cccs2)CC1,i
CCCNS(=O)(=O)c1cccc(C(=O)NC2CCCc3ccccc32)c1 (stereo unspecified),0.2
O=C(Cn1nc(-c2ccccc2)c2ccccc2c1=O)Nc1ccc2c(c1)nc1n2CCOC1,0.3
CC1CCN(CCCNC(=O)c2cn(C)c3ccc(S(=O)(=O)N4CCCC4)cc3c2=O)CC1,1.4
COc1ccc(S(=O)(=O)N(C)CC(=O)NCCC2=CCCCC2)cc1,i
CC(C)NS(=O)(=O)c1ccc(Oc2ncc(C(F)(F)F)cc2Cl)cc1,0.7
c1ccc(-c2csc3ncnc(NCCN4CCOCC4)c23)cc1,1.6
CCCNC(=O)COC(=O)c1ccc(OCC(=O)Nc2ccccc2OC)c(OC)c1,0.8
Cc1cccc(Sc2nc(-c3ccccc3)ccc2C#N)c1,i
Cc1nn(C)cc1C(N)=O,i
Cc1cc(C)n(-c2nc3ccccc3c(=O)n2OCC(=O)OCc2ccccc2)n1,1.7
CCOC(=O)N1CCN(C(=O)CN(c2cc(C(F)(F)F)ccc2Cl)S(C)(=O)=O)CC1,0.1
O=C(NCCC1=CCCCC1)C1COc2ccccc2O1 (stereo unspecified),1.4
Cc1ccc(C)c2[nH]c(=O)c(CN(Cc3ccco3)C(=O)Nc3ccccc3)cc12,i
COC(=O)c1ccc(C2C(Oc3ccccc3)C(=O)N2CCc2ccc(OC)c(OC)c2)cc1 (stereo unspecified),0.2
CC(C)C(C)(C#N)NC(=O)CSc1nnc(C(F)(F)F)n1C (stereo unspecified),i
Cc1csc(NC(=O)CSc2nnc3ncccn23)n1,1.5
CCCc1ccc(-c2ccc(C(=O)O)cc2)nc1,i
COc1ccc(-n2c(SCC(=O)c3c(N)n(C)c(=O)n(C)c3=O)nc3ccccc32)cc1,0.3
O=C(OCCN=C1NS(=O)(=O)c2ccccc21)C1CC(=O)N(c2ccc3ccccc3c2)C1 (stereo unspecified),i
O=C(CCSCCc1ccccn1)Nc1ccc(Cl)cn1,0.2
O=C(Nc1ccc(-c2nnc(-c3ccccc3)o2)cc1)C(F)(F)F,i
O=C1CN(CC(=O)N2CCOCC2)c2ccccc2O1,i
O=C(CSc1nc2ccccc2o1)N1CCN(C(=O)c2ccco2)CC1,0.8
Cn1c(C(=O)NCC2CCCO2)cc2oc3ccccc3c21 (stereo unspecified),1.0

# Bioassay records as filed in PubChem BioAssay.
